A488 fluor: qHTS Assay for Spectroscopic Profiling in A488 Spectral Region; compound autofluorescence, A488 spectral region, dye equivalency; stronger effect = higher value; max dye equivalency, M; hit rate 0.1% among 59,000; AID 591, 2007; active = above 10 nM dye equivalent; inconclusive = 1 to 10 nM; inactive = 1 nM or less; about half of its hits are not listed in these tables;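 also: highest value over a series up to 38 µM; compound alone in buffer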
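Spectroscopic profiling in the A488 region: compounds in pH 8.0 Tris (100 mM), 15 min RT, CCD imaging with 480 nm excitation and 540 nm emission; responses normalized against A488 dye standards.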
TSHR agonist: qHTS Assay for Agonists of the Thyroid Stimulating Hormone Receptor; Thyrotropin receptor (Homo sapiens), P16473; HEK293-CNG-TSHR cells (CNG channel as cAMP sensor), membrane potential dye, cAMP; Potency, µM (series often up to 57.1 µM), for inactives: at the top dose activation, hits mostly activators; hit rate 0.48% among 73,000; AID 926, 2007; active = well fitted activation curve of enough size with the parental cells flat; inconclusive = any curve in the parental cells; inactive = parental cells flat and receptor cells flat or falling; also: potency is read from the fitted curve at half-maximal effect; % of control where 0% means no effect; weak receptor curves with flat parental cells got no call and are not listed
Target sequence (P16473 whole entry, looked up): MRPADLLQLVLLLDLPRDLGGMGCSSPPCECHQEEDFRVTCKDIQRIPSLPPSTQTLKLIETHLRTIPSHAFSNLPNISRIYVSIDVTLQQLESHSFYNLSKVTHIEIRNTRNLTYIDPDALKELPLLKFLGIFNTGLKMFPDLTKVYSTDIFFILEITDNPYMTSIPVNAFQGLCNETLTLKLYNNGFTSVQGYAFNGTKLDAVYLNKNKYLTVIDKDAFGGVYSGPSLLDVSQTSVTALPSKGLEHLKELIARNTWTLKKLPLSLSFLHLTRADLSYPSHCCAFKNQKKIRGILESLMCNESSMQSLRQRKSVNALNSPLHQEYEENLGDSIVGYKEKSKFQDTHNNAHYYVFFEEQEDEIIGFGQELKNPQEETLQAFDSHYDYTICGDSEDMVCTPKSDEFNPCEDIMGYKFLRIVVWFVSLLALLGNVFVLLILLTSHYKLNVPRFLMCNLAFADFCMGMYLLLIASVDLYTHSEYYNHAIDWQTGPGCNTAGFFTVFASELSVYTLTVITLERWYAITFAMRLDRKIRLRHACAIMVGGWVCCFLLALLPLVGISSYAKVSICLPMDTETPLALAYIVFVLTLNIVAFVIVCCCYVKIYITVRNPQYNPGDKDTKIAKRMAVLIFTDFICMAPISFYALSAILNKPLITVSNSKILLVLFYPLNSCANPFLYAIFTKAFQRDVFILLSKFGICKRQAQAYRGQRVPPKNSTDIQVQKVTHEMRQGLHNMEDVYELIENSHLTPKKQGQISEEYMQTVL
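cAMP rise detected as CNG-channel membrane depolarization by fluorescent dye (emission 590 nm), 30 min after compound, following 60 min dye loading containing 100 uM RO 20-1724 at room temperature. Cells: TSHR/CNG HEK 293, with parental CNG HEK 293 as control.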
AID923: qHTS Assay for Allosteric/Competitive Inhibitors of Caspase-1: Spectroscopic Profiling in AFC Spectral Region | compound fluorescence, AFC spectral region (405/520 nm); almost no hit is shown here | Potency, µM (top dose mostly 57.5 µM), for the others: at the top dose fluorescence increase, most hits filed as activators | hit rate 1.1% among 75,000 | AID 923, 2007; active = well fitted activation curve with a large enough effect; inconclusive = small, poorly fitted or top-dose-only effect;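 also: potency is read from the fitted curve at half-maximal effect; 0% is about no effect; scaled to a free AFC standard on each plate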
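Baseline compound fluorescence (AFC region, 405 nm ex/520 nm em) taken from the intercept of kinetic reads with 50 nM caspase-1 and 5 uM Ac-WEHD-AFC; normalized to an on-plate AFC standard curve; compounds titrated up to 57 uM.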
A647 fluor: qHTS Assay for Spectroscopic Profiling in A647 Spectral Region | Compound fluorescence, A647 channel (570/671 nm), Tris buffer | max dye-equivalent concentration, M | 59,000 tested, under 10 active | AID 592, 2007; active means above 1 µM dye equivalent; inconclusive means 0.1 to 1 µM; inactive means 0.1 µM or less;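 also: values scaled relative to a standard on each plate; highest value over a series up to 38 µM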
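Compounds pinned into 100 mM Tris pH 8.0, 15 min at room temperature, then read with 570 nm excitation/671 nm emission filters. Fluorescence normalized to an on-plate six-point Alexa 647 standard curve, giving dye-equivalent concentration per compound concentration.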
Resorufin fluor: qHTS Assay for Spectroscopic Profiling in Resorufin Spectral Region | max dye-equivalent concentration, M | hit rate 0.04% among 59,000 | Compound fluorescence, resorufin region 547/598 nm, buffer; stronger effect = higher value | AID 588, 2007; active = above 10 nM dye equivalent; inconclusive = 1 to 10 nM; inactive = 1 nM or less; a few of its hits are not listed in these tables; also: highest value over a series up to 38 µM
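Intrinsic fluorescence profiled in the resorufin window (ex 547 nm, em 598 nm) after 15 min at room temperature in pH 8.0 Tris buffer (100 mM); responses normalized against a six-point resorufin standard series as dye-equivalent concentration.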
Active calls of the source: *; i = inactive; ? = inconclusive; / = not tested or not shown; & = joins results of further samples; [ ] = another dose, or the depositor's remark.

SMILES	A488 fluor	TSHR agonist	AID923	A647 fluor	Resorufin fluor
CCOC(=O)c1c(C)c(C(=O)N2CCC3(CC2)OCCO3)c(C)n1CC	i	-0.6%[11.4 µM]	2.5%	1e-09	i
CC1SC2(CN3CCC2CC3)NC1=O (stereo not given)	/	-8.0%	-0.2%	/	/
CCCCCCOC(=O)c1ccccc1N	/	9.9%	-1.2%	/	/
CCOC(=O)CC1=C(C(=O)OCC)C2(C(=O)N1)C(C(=O)OC)=C(N)Oc1ccccc12 (stereo not given)	i	-22.9%	-0.2%	5.1e-09	i
C=CCN1C[C@H](C)N([C@H](c2ccc(C(=O)N(CC)CC)cc2)c2cccc(OC)c2)C[C@H]1C	/	3.1%	-0.3%	/	/
CCOC(=O)c1ccc(COC(=O)c2ccc(-c3nnc(-c4ccccc4)o3)cc2)o1	i	?	-1.6%	1.06e-08	i
O=C1CC(N(O)c2ccccc2)C(=O)N1Cc1ccccc1 (stereo not given)	/	?	3.0%	/	/
CN(c1ccccc1)S(=O)(=O)c1cccc(C(=O)N2CCN(c3ccccn3)CC2)c1	i	?	0.4%	9.3e-09	i
O=c1ccc2[nH]cc(C3=CCNCC3)c2[nH]1	/	-1.4%	4.0%	/	/
Cc1nc2cc(-c3cccc(F)c3)nn2c(C)c1CCC(=O)N1CCC2(CC1)OCCO2	i	/	0.9%	3.92e-08	i
CC(=C1C(=O)c2ccccc2C1=O)N1CCN(CCN=Cc2c(O)n(C)c(=O)n(C)c2=O)CC1	i	/	/	3.79e-08	i
COc1ccc2c(c1OC)CN1CCc3cc4c(cc3[C@H]1C2)OCO4	i	3.7%[25.6 µM]	-0.9%[25.7 µM]	3.3e-09	i
BrCCc1ccccc1	/	0.3%	-0.8%	/	/
O=C(Cn1cc(C(=O)c2ccccc2)c2ccccc21)NCc1ccco1	i	24.3%	0.5%	8.6e-09	i
O=C=NC1CCCCC1	/	-9.2%&-4.3%	0.2%&-2.8%	/	/
O=C(Cc1cccs1)N1CCC2(CC1)OCCO2	i	0.7%	-1.4%	4.1e-09	i
Cc1nnc2ccc(N3CCN(C)CC3)nn12	/	2.7%	0.9%	/	/
Cc1cc(NC(=O)COC(=O)c2c(C)nn(Cc3ccccc3Cl)c2Cl)no1	i	?	0.7%	2.04e-08	i
CCC(COC(=O)c1cc(OC)c(OC)c(OC)c1)(c1ccccc1)N(C)C (stereo not given)	i	/	-1.0%	1e-09	i
Cc1cc(CN(C)C)c(OC(=O)N(C)C)cc1C	i	10.1%	2.5%	4.1e-09	i
CCC1(c2ccccc2)C(=O)N(COC)C(=O)N(COC)C1=O	/	26.5%[11.4 µM]	3.7%	/	/
Clc1cccc(N2CCNCC2)c1	i	8.0%&6.1%	-1.8%&-2.0%	4e-09	i
N[C@H](Cc1c[nH]c2ccccc12)P(=O)(O)O	i	-2.3%[11.4 µM]	-2.1%[11.5 µM]	2.5e-09	i
O=P(O)(O)C12CC3CC(CC(C3)C1)C2	i	8.9%	-1.2%	3.4e-09	i
O=C(O)c1cc[c]([Hg][S]c2ncnc3nc[nH]c23)cc1	i	-9.1%[11.4 µM]	-19.6%[11.5 µM]	1e-09	i
Cc1ccc(N)cc1Cl	/	2.6%	-0.9%	/	/
CC(C)C#N	/	?	-0.6%	/	/
CCC1CCCCN1P(=O)(c1ccc(C)o1)C(C)(C)C (stereo not given)	i	?	3.2%	1e-09	i
CCOc1ccc(-n2c(O)c(C=NCCN3CCNCC3)c(=O)[nH]c2=O)cc1	i	/	/	4.4e-09	i
CN(C)C1=NP(N(C)C)(N(C)C)=NC(c2ccccc2)=N1	i	1.6%	-1.3%	4.4e-09	i
C=C(C)[C@@H]1CN[C@H](C(=O)O)[C@H]1CC(=O)O	i	?	/	4.2e-09	i
COc1ccc(CCN(C)Cc2c(F)cccc2F)cc1OC	/	6.1%	-2.2%	/	/
Cc1cc(S(=O)(=O)NCC(C)C)ccc1OCC(=O)N1CCN(Cc2ccccc2)CC1	i	19.2%	-1.4%	7.64e-08	i
COc1ccc(C(=O)N2CCOCC2)cc1S(=O)(=O)N1CCC(C)CC1	i	-0.4%	2.7%	5e-09	i
Cc1cc(S(=O)(=O)NCc2ccccc2)ccc1OCC(=O)N1CCN(C)CC1	i	-1.6%	-1.1%	7.5e-09	i
C[C@]1(O)CC[C@H]2[C@@H]3CCC4=CC(=O)CC[C@]4(C)[C@@]3(F)[C@@H](O)C[C@@]21C	/	-2.3%	1.1%	/	/
O=C1C2CC=CCC2C(=O)N1SC(Cl)(Cl)Cl (stereo not given)	/	?	5.8%&4.6%	/	/
CC(C)(C)c1nc(N2CCN(C(=O)c3ccco3)CC2)c2nnn(Cc3ccccc3Cl)c2n1	i	11.9%	0.9%	8.2e-09	i
CCC(=NCCCN(CC)CC)c1c(O)n(-c2ccccc2)c(=O)[nH]c1=O	i	4.5%	0.2%	2.6e-09	i
Nc1cccc2c(N)cccc12	/	?	2.7%	/	/
CN(C)CS/C(N)=N/[C@H](O)C(Cl)(Cl)Cl	i	0.2%[11.4 µM]	2.6%[11.5 µM]	3.5e-09	i
O=P(O)(O)C(Cl)(Cl)P(=O)(O)O	i	8.0%	-2.5%	5.24e-08	i
COC1=C[C@H]2[C@@H]3Cc4ccc(OC)c(O)c4[C@@]2(CCN3C)CC1=O	i	11.1%	/	1.68e-08	i
c1ccc(P(c2ccccc2)c2ccccc2)cc1	/	13.0%	3.9%	/	/
CN(C)C1=NC(N(C)C)=NP(N(C)C)(N(C)C)=N1	/	-2.0%	-0.1%	/	/

The last 3 entries of the section above come first, to join the parts.
SMILES	A488 fluor	TSHR agonist	AID923	A647 fluor	Resorufin fluor
COC1=C[C@H]2[C@@H]3Cc4ccc(OC)c(O)c4[C@@]2(CCN3C)CC1=O	i	11.1%	/	1.68e-08	i
c1ccc(P(c2ccccc2)c2ccccc2)cc1	/	13.0%	3.9%	/	/
CN(C)C1=NC(N(C)C)=NP(N(C)C)(N(C)C)=N1	/	-2.0%	-0.1%	/	/
COc1ccc(CCN)cc1O	i	?	-0.5%	1e-09	i
CC(C)CN1CC2(CCN(C(=O)c3ccncc3)CC2)C1	i	5.6%	2.1%	2.67e-08	i
C1=C(c2c[nH]c3ccccc23)CCNC1	i	-2.0%	0.3%	1.48e-08	i
CN(C)P1(N(C)C)=Nc2c(c(N)nn2C)C(c2ccccc2)=N1	i	4.8%	-0.1%	1.77e-08	i
Cc1ccc(Cl)cc1N1CCN(C(=O)c2cn(C)c(=O)c3c2c2ccccc2n3C)CC1	i	?	0.9%	1.03e-08	i
N[C@@H](Cn1cc(I)c(=O)[nH]c1=O)C(=O)O	/	4.0%	-2.0%	/	/
COC(=O)c1cc2c(s1)=NC=NP=2(N1CCOCC1)N1CCOCC1	i	4.7%	0.5%	9.4e-09	i
CN1C(=O)C(Cc2cccs2)C(=O)N(C)C1=O	/	-2.7%	3.1%	/	/
O=C(Oc1ccc(S(=O)(=O)F)cc1F)c1ccccc1Cl	i	3.6%[11.4 µM]	0.6%[11.5 µM]	4.51e-08	i
COC(=O)Cc1cc(=O)n(-c2ccccc2)[nH]1	i	?	1.8%	1e-09	i
CN1[C@@H]2CC[C@H]1CC(OC(=O)N1Cc3ccccc3NC1=O)C2 (stereo not given in full)	/	-1.4%	2.5%	/	/
O=C1NC(=O)C2(Cc3ccccc3N3CCCC32)C(=O)N1c1cccc(Cl)c1 (stereo not given)	i	5.4%	16.0%	1e-09	i
CN1CCC(N2CC3CC(C2)c2cccc(=O)n2C3)CC1 (stereo not given)	i	-1.3%	1.1%	3.92e-08	i
CC[C@@H]1[C@@H]2C[C@H]3[C@H]4N(C)c5ccccc5[C@@]45C[C@@H]([C@@H]2[C@@H]5O)N3[C@H]1O	i	-5.9%[25.6 µM]	-0.2%[25.7 µM]	1e-09	i
C[C@@]12CC[C@H]3[C@H](CCC4=CC(=O)CC[C@H]43)[C@H]1CC[C@H]2OC1(O)C(=O)c2ccccc2C1=O	i	1.4%[11.4 µM]	1.1%[11.5 µM]	2.15e-08	i
CCC1CN2CCC1CC2C(Oc1cc2ccccc2c2ccccc12)c1ccnc2ccc(O)cc12 (stereo not given)	/	-4.7%[11.4 µM]	-3.2%[11.5 µM]	/	/
CC(C)Oc1ccc(Cc2c(O)[nH]c(=O)[nH]c2=O)cc1	i	26.0%	0.5%	6.31e-08	i
O=C(c1cc(=O)[nH]c2ccc(Br)cc12)N1CCC2(CC1)OCCO2	i	0.6%	-0.3%	1.69e-08	i
O=c1cccc2n1CC1CC2CN(c2ncnc3c2cnn3-c2ccc(Cl)cc2)C1 (stereo not given)	i	/	0.8%	6.6e-09	i
COC(=O)c1ccc(COc2cc(C)cc3oc(=O)c4c(c23)CCCC4)o1	/	16.0%[11.4 µM]	-1.2%	/	/
O=[N+]([O-])C(Br)Br	/	4.7%	4.3%	/	/
C[C@H]1[C@@H](O)[C@@H](C)/C=C\C=CCC\C=C/C=C\C=C/C=C[C@@H](O[C@H]2O[C@@H](C)[C@@H](O)[C@@H](N)[C@@H]2O)C[C@@H]2O[C@@](O)(C[C@@H](O)[C@H]2C(=O)O)C[C@@H](O)[C@@H](O)CC[C@@H](O)C[C@@H](O)C[C@@H](O)CC(=O)O[C@H]1C	i	-16.0%[25.6 µM]	0.8%[25.7 µM]	2.2e-09	i
COc1ccccc1CN1CC[C@@]2(CCCN(C(=O)Oc3ccccc3)C2)C1	i	?	-2.0%	1e-09	i
O=C1CC(c2ccccc2)CC(O)=C1C=NCCN1CCN(C(=O)Cc2ccccc2)CC1 (stereo not given)	/	-1.2%	-0.8%	/	/
COc1ccc2c3c1O[C@@H]1C(=O)CC[C@@]4(O)[C@@H](C2)N(CC2CC2)CC[C@]314	i	?	0.2%	1e-09	i
NCCc1c[nH]c2ccccc12	i	-2.3%	-1.7%&-2.8%	2.6e-09	i
CCN1C[C@@]2(COC)CC[C@H](OC)[C@]34[C@@H]1[C@]1(OCO[C@@]15C[C@@H](OC)C1C[C@H]3[C@H]5[C@@H]1OC)[C@H](O)[C@@H]24	i	19.7%[25.6 µM]	1.7%[25.7 µM]	1e-09	i
Clc1cncc(N2CCNCC2)n1	/	1.2%	4.4%	/	/
O=C(NCP(=O)(O)O)c1cccnc1	i	-5.4%[11.4 µM]	-1.1%[11.5 µM]	1e-09	i
C(=NC1CCCCC1)=NC1CCCCC1	/	-1.8%	3.0%	/	/
Nc1ccccc1Cl	/	?	-1.5%	/	/
NNC(=O)c1ccc(O)cc1	i	-12.5%	-4.3%	2.28e-08	i
CC(=O)Nc1ccccc1OP1(=O)COc2ccccc2OC1	i	-0.4%	1.0%	3.77e-08	i
CS(=O)(=O)N1CCCC(C(=O)N2CCC3(CC2)OCCO3)C1 (stereo not given)	i	2.9%	0.2%	6.1e-09	i
Cc1ncc(CN2CC=C(c3ccccc3)CC2)c(N)n1	/	?	-1.2%	/	/
C[C@@H]1[C@@H](C)N1C[C@H](O)Cn1ccnc1[N+](=O)[O-] (stereo not given in full)	i	-1.2%[11.4 µM]	2.4%[11.5 µM]	5.4e-09	i
O=c1[nH]c(=O)n(Cc2ccco2)c(O)c1C=NCCN1CCOCC1	i	/	/	6.03e-08	i
COc1ccc2c(c1)c(CCN1CCOCC1)c(C)n2C(=O)c1cccc(Cl)c1Cl	/	?	0.3%	/	/

High-throughput results: PubChem, National Center for Advancing Translational Sciences (NCATS)

These rows are one share of the data; count on the stated rates, not on these rows.
